Compound activity (PubChem BioAssay)
CBX7 AlphaScr: blocks human CBX7 binding to H3K27me3 peptide; O95931; AlphaScreen His6-CBX7 / biotin-H3K27me3 peptide binding; stronger effect = lower value; normalised signal (fraction of DMSO) (test concentration not listed); 66,000 compounds, 1.1% hits; in the data active means normalised signal below about 0.5;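 further: 100 nL library stock added to about 20 µL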
Target sequence (O95931 whole entry, looked up): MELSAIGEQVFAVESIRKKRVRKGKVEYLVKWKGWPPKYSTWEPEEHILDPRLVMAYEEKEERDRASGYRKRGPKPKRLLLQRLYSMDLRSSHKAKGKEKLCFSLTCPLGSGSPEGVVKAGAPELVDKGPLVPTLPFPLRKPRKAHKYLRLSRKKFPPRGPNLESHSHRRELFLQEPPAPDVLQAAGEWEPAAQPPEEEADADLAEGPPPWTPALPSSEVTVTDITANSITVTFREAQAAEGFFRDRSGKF
CBX7 AlphaScr z-score: further read-out of CBX7 AlphaScr, marked with its call; z-score; measured here: z-score of CBX7 signal; some inactives read as strong as hits; reference of the scale not given here;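 same signal on another scale; lower means less binding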
Starred values were filed as active, the others as inactive; & = joins results of further samples. An excerpt. The share of hits here may be higher or lower than overall.

SMILES	CBX7 AlphaScr	CBX7 AlphaScr z-score
CCN1CCN(c2cc(C)c3cc(NC(=O)CCC(=O)N4CCCCCC4)ccc3n2)CC1	1.12	2.06
Cc1cc(N2CCN(C)CC2)nc2ccc(NC(=O)c3ccccc3F)cc12	0.965	-0.38
Cc1ccc2nc(Nc3ccc(C(=O)Nc4ccccc4C)cc3)nc(-c3ccccc3)c2c1	0.96	-0.726
CCN1CCN(C(=O)CCC(=O)Nc2ccc3nc(N4CCN(C)CC4)cc(C)c3c2)CC1	0.985	-0.678
Cc1nn(C(=O)C2CC2c2ccc(C(C)(C)C)cc2)c(C)c1Cl (centres undefined)	1.37	6.53
CCN(CC)CCn1c(-c2ccc(Cl)cc2)cn2c3ccccc3nc12	0.923	-1.51
CCOC(=O)C1CCCN(c2c(Nc3ccc(C)c(C)c3)c(=O)c2=O)C1 (centres undefined)	0.987	-0.296
Cc1c(Cc2ccccc2)c(NC2CCCCC2)n2c(nc3ccccc32)c1C#N	0.93	-1.09
CCN1CCN(c2cc(C)c3cc(NC(=O)CCC4CCCC4)ccc3n2)CC1	1.06	2.63
Cc1ccccc1-c1nc(-c2ccc(NC(=O)c3ccccn3)cc2)no1	0.821	-0.707
O=C(NCCCN1CCOCC1)c1ccc2c(c1)N(Cc1ccccc1)C(=O)c1ccccc1S2=O (centres undefined)	0.97	-0.77
CCOc1ccc(N2C(=O)CC(N3CCN(C)CC3)C2=O)cc1 (centres undefined)	1.05	1.34
FC(F)(F)c1cc(-c2cccs2)nc(-n2ccnc2)n1	1.02	0.579
O=C(NCc1ccc2c(c1)OCO2)C1CCCN(S(=O)(=O)c2cnc[nH]2)C1 (centres undefined)	1.12	2.74
Cc1ccc(-c2nc(Nc3cccc(C(F)(F)F)c3)c3ccccc3n2)cc1	1.08	1.39

Arranged by SMILES length (high to low): 4 of the compounds above.
SMILES	CBX7 AlphaScr	CBX7 AlphaScr z-score
O=C(NCc1ccc2c(c1)OCO2)C1CCCN(S(=O)(=O)c2cnc[nH]2)C1 (centres undefined)	1.12	2.74
Cc1c(Cc2ccccc2)c(NC2CCCCC2)n2c(nc3ccccc32)c1C#N	0.93	-1.09
Cc1cc(N2CCN(C)CC2)nc2ccc(NC(=O)c3ccccc3F)cc12	0.965	-0.38
Cc1nn(C(=O)C2CC2c2ccc(C(C)(C)C)cc2)c(C)c1Cl (centres undefined)	1.37	6.53

Next section.
SMILES	CBX7 AlphaScr	CBX7 AlphaScr z-score
COc1ccc(NC(=O)C2CC(c3ccc(F)cc3)=NO2)cc1OC (centres undefined)	1.04	1.78
Cc1cc2ccccc2c(=O)n1CC(=O)NCC(=O)N1CCCC(C)C1 (centres undefined)	1.06	0.59
COc1ccc2[nH]c(C)c(CCNS(=O)(=O)c3cc(Br)ccc3OC)c2c1	0.363*	-0.634*
Cc1nc2c(C(=O)NCCN3CCOCC3)cnn2c(C)c1Cc1cccc(Cl)c1	1.05	0.586
CCc1ccc(-c2cc(C(=O)Nc3ccc(F)c(Cl)c3)c3ccccc3n2)cc1	1.02	0.466
CN(C)c1ccc(CNCCC2(O)CCOC(C)(C)C2)cc1 (centres undefined)	1.04	1.45
OC(COc1ccccc1)CSc1nc2ccccc2o1 (centres undefined)	1.07	1.07
Cc1ccc(CNC(=O)c2ccc(CNc3c(N4CCCCC4)c(=O)c3=O)cc2)cc1	0.95	-0.114
c1ccc(-c2nc(N3CCOCC3)c3ccccc3n2)cc1	1.05	1.29
CCN1C(=O)CSc2ccc(C(=O)NC3CCCCC3C)cc21 (centres undefined)	0.959	-1.07
O=C(c1ccc(CNc2c(NC3CCCC3)c(=O)c2=O)cc1)N1CCc2ccccc21	0.907	-0.213
Cc1cccc(C(=O)NCCc2nc3ccccc3[nH]2)c1	1.02	0.723
COc1cc2ccccc2cc1C(=O)Nc1ccc2nc(C)sc2c1	1.15	3
O=C(NCCc1c[nH]c2ccccc12)c1cccc(NC2=NC3CS(=O)(=O)CC3S2)c1 (centres undefined)	0.792	-2.27
CCOC(=O)c1cc(C)n2nc(-c3ccc(C(C)(C)C)cc3)cc2n1	1.16	3.46

Some of the entries so far, bar-delimited.
SMILES | CBX7 AlphaScr | CBX7 AlphaScr z-score
Cc1nc2c(C(=O)NCCN3CCOCC3)cnn2c(C)c1Cc1cccc(Cl)c1 | 1.05 | 0.586
c1ccc(-c2nc(N3CCOCC3)c3ccccc3n2)cc1 | 1.05 | 1.29
Cc1cccc(C(=O)NCCc2nc3ccccc3[nH]2)c1 | 1.02 | 0.723

(more compounds)
SMILES	CBX7 AlphaScr	CBX7 AlphaScr z-score
CC(=O)Nc1cccc(Oc2nnc(-c3ccc(Cl)cc3)c3ccccc23)c1	0.831	-0.23
Cc1ccn2c(-c3csc(Nc4ccccc4C)n3)c(C)nc2c1	1.05	0.608
O=C(Cn1nc(Cc2ccncc2)c2ccccc2c1=O)Nc1ccccn1	0.989	-0.311
CCOc1ccc(S(=O)(=O)c2cn(Cc3ccc(Cl)cc3)c3ccc(OC)cc3c2=O)cc1	1.1	3.82
Cc1ccc(-c2cc(-c3ccc(Br)cc3)n[nH]2)c(O)c1	0.905&0.773	-2.5&-0.997
CCCCN(CC)C(=O)c1ccc2c(c1)NC(=O)c1ccccc1S2	1.01	0.226
COc1ccc(-c2nc(S(=O)(=O)c3ccc(Cl)cc3)c(N3CCCCC3)o2)cc1	0.908	-1.04
O=C(NCc1ccccn1)C1CCCN(C(=O)c2cnn(-c3ccccc3)c2-n2cccc2)C1 (centres undefined)	1.06	0.436
Cc1ccc(S(=O)(=O)NCCc2c(C)[nH]c3c(Cl)cccc23)c(C)c1C	0.934	-0.185
CCOc1ccc(Nc2cc(C)c3c(O)cccc3n2)cc1	0.845	-6.19
Cc1ccc(C(=O)Nc2nnc(-c3cccs3)s2)cc1C	1.08	0.321
O=C(Nc1cccs1)Nc1cccnc1Cl	1.04	1.65
COc1cc(NS(=O)(=O)c2ccc(NC(=O)Cc3ccccc3)cc2)ncn1	1.06	0.676
O=C(Cn1nnc(-c2ccc(F)cc2)n1)N1CCCCC1	1.07	1.82
COc1ccc(OC)c(-c2cc(C(=O)Nc3cnn(Cc4ccc(Cl)cc4Cl)c3)no2)c1	1.18	1.35
Cc1cc(NC(=O)c2ccc3c(=O)n4c(nc3c2)CCCCC4)ccc1Br	1.06	2.42
Cc1cccc(NC(=O)C2CCCN2S(=O)(=O)c2cccc3cccnc23)c1 (centres undefined)	0.982	-0.607
CCOc1ccc(NC(=O)CN2C(=O)c3ccccc3S2(=O)=O)cc1	0.976	-0.239
O=C(NCC1CCCO1)c1ccc(NC2=NC3CS(=O)(=O)CC3S2)cc1 (centres undefined)	1.04	0.829
CCCCCOc1ccc(C(=O)Nc2ccccc2-c2nc3ccccc3o2)cc1	1.13	3.46
CCn1cc(C(=O)NCCN2CCOCC2)c2cc(OC)c(OC)cc2c1=O	1.09	1.29
CC(C)(C)c1ccc(-c2nc(Nc3ccccc3)c3ccccc3n2)cc1	1.23	6.49
Cc1onc(-c2ccccc2Cl)c1C(=O)NCCOC12CC3CC(CC(C3)C1)C2	0.904	-1.39
Cc1cccc(C)c1NC(=O)CSc1nccn1Cc1ccccc1	0.95	-1.93
COc1cccc(-c2nn(C)c3sc(C(=O)NCCCN4CCCC4)cc23)c1	0.974	-0.742
CCc1ccc(NC(=O)CN2C(=O)CC(c3ccc(OC)c(OC)c3)Sc3ccccc32)cc1 (centres undefined)	0.954	-0.652
Cc1ccc2c(c1)C(c1ccccc1)N(C(=O)C(C)Oc1ccccc1)CC(=O)N2 (centres undefined)	1.02	0.028
COc1ccc(-c2noc(COc3cc(C)c(Cl)c(C)c3)n2)cc1OC	0.986	-0.136
CC1CCCN(C(=O)Cn2ccc3ccccc3c2=O)C1 (centres undefined)	1.05	0.421
CCc1ccc2nc(N3CCC(C(=O)NCCCN4CCCCC4)CC3)sc2c1	1.42	0.847
COc1ccc(-c2nn(C)c3sc(C(=O)NC4CCCCC4)cc23)cc1OC	0.974	-0.738
O=C(CCCn1c(=O)[nH]c2cc(Cl)ccc2c1=O)N1CCN(c2ccccn2)CC1	1.01	0.322
COc1ccc(C(=O)Nc2nc3ccccc3n2CCOc2ccc(Br)cc2)cc1	0.935	-1.81
O=C(NCCN1CCOCC1)c1cc(-c2ccc(Cl)s2)nc2ccccc12	1.04	1.54
Cc1nc(Oc2ccc(F)cc2)c(C(=O)NCCc2ccccc2)c(C)c1Cl	1.06	0.0554
Cc1nc2c(C(=O)NC3CCCCCCC3)cnn2c(C)c1Cc1ccccc1	0.584	-4.56
COc1ccc(CCNC(=O)CCn2c(=O)[nH]c3cc(OC)c(OC)cc3c2=O)cc1OC	1.04	1.27
CCOc1ccccc1CN1C(=O)CCC1(C)C(=O)NC1CCCCCC1 (centres undefined)	1.23	1.78
O=C(COc1ccc2oc3c(c2c1)CCCC3)Nc1ccccc1	1.02	0.223
Cc1ccc(NC(=O)C2OC3OC4(CCCCC4)OC3C3OC4(CCCCC4)OC23)cc1Cl (centres undefined)	1.08	1.13
NC(=O)COc1ccc(-c2noc(-c3cccs3)n2)cc1	1.02	0.221
CC1CN(c2oc(COc3ccc(F)cc3)nc2C#N)CC(C)O1 (centres undefined)	0.821	-1.12
CCCCCc1ccc(-c2ccc(-c3ccc(C#N)cc3)nc2)cc1	1.22	4.08
Cc1ccc(CCN2CC(C(=O)NCCCN3CCN(C)CC3)CC2=O)cc1 (centres undefined)	1.04	1.84
CC(C)c1ccc(C(=O)Nc2ccc3oc(-c4ccncc4)nc3c2)cc1	1.09	1.56

Fetched one by one from the list above (2):
SMILES	CBX7 AlphaScr	CBX7 AlphaScr z-score
COc1ccc(-c2nn(C)c3sc(C(=O)NC4CCCCC4)cc23)cc1OC	0.974	-0.738
CC1CN(c2oc(COc3ccc(F)cc3)nc2C#N)CC(C)O1 (centres undefined)	0.821	-1.12

Next section
SMILES	CBX7 AlphaScr	CBX7 AlphaScr z-score
O=C(CSc1nnc(COc2ccc3c(c2)CCCC3)o1)Nc1ccc(Cl)cc1	0.956	-0.506
COc1ccc(CCNc2ncc3c(n2)CC(c2ccc(C)cc2)CC3=O)cc1 (centres undefined)	1.16	1.75
Cc1cc2ncn(-c3ncnc4scc(-c5ccc(Cl)cc5)c34)c2cc1C	0.778	-0.452
Cc1cccc(Cn2c(=O)n(CCC(=O)NCc3ccc4c(c3)OCO4)c(=O)c3sccc32)c1	1.01	0.296
Fc1ccc(-c2nnc3ccc(N4CCN(c5ccccn5)CC4)nn23)cc1	0.904	-2.16
O=C(CN1C(=O)CCNC1=O)N1CCN(Cc2ccccc2)CC1	0.852	-1.7
NS(=O)(=O)c1ccc(CCNS(=O)(=O)c2ccc3c(c2)CCN3C(=O)C2CC2)cc1	1.02	0.534
Cc1nc2c(-c3ccccc3)c(C)nn2c(C)c1CCC(=O)NC(C)C	1.12	1.31
COc1ccc(CCN2C(=O)CC(N3CCN(c4ccc(Cl)cc4)CC3)C2=O)cc1OC (centres undefined)	0.845	-2.41
O=C(NCc1ccc(F)cc1)c1cnn2c(C(F)(F)F)cc(-c3ccccc3)nc12	1.04	1.93
Cc1nn(Cc2c(Cl)cccc2Cl)c(C)c1NC(=O)c1cc(C2CC2)on1	1.03	1.04
Cc1ccc(CCNC(=O)C2CCCN(S(=O)(=O)c3c(C)noc3C)C2)cc1 (centres undefined)	1.17	2.65
Cc1cc2cc(CCNC(=O)c3ccccc3F)c(=O)[nH]c2cc1C	1.12	0.789
O=C(NCCN1CCOCC1)c1ccc2nc(N3CCOCC3)sc2c1	1.08	3.01
Clc1ccccc1OCc1nc(-c2ccncc2)no1	1.13	0.96
Cc1c(NC(=O)c2ccc(-c3ccc(Cl)cc3)o2)cccc1-c1nc2ncccc2o1	1.01	0.0124
Cc1cccc(NC(=O)CSc2nnc(CNC(=O)c3ccccc3F)o2)c1C	1.02	0.517
COc1ccc(CC(=O)Nc2c3c(nn2-c2ccc(F)cc2)CSC3)cc1	0.972	-0.781
Cc1nc(N2CCC(C)CC2)c2c(C)c(C(=O)O)sc2n1	0.943	-0.0991
NC(=O)c1ccc(-n2nnnc2SCc2ccc(F)cc2)cc1	1.11	1.01
Cc1cc(NC(=O)CNC2CCCCC2)c2ccccc2n1	1.02	0.328
CCC(C(=O)c1ccccc1)c1nc2ccccc2[nH]c1=O (centres undefined)	1.05	0.754
O=C(Nc1c(C(=O)N2CCC(Cc3ccccc3)CC2)cnn1-c1ccccc1)c1ccccc1F	0.936	-0.761
Cc1ccc(C)c(CSc2nnc(Cc3cc(=O)[nH]c(=O)[nH]3)n2-c2ccc(Cl)cc2)c1	0.794	-3.16
CCn1cc(C(=O)N2CCN(C)CC2)c(=O)c2ccc(C)nc21	1.02	0.216
CCOc1ccc(-c2n[nH]c(C(F)(F)F)c2Oc2ccccc2)c(O)c1C	0.703	-4.61
COc1ccc2nc(SCc3ccc(C)cc3)[nH]c2c1	1.02	0.788
COC(=O)c1ccc(NC(=O)CC2Sc3ccc(C(F)(F)F)cc3NC2=O)cc1 (centres undefined)	1.02	0.76
CCOc1ccc(C(=O)NCCc2cc3cc(C)c(C)cc3[nH]c2=O)cc1OCC	0.993	-0.291
CCc1ccccc1NC(=O)CCCN1C(=O)c2cccnc2C1=O	0.679	-5.4
O=C(CCc1cn(Cc2ccccc2)c2ccccc12)NCCc1ccc(Cl)cc1	0.938	-1.07
Cc1cccc(C)c1OCC(=O)Nc1c(C(=O)c2ccc(Cl)cc2)oc2ccccc12	1.16	0.722
COc1ccccc1N1CCN(C2CC(=O)N(c3ccc(C(=O)O)cc3)C2=O)CC1 (centres undefined)	0.893	-1.69
Cc1cc(NS(=O)(=O)c2c(C)cc(N3CCCC3=O)cc2C)no1	1.07	1.5
CCN(CC)S(=O)(=O)c1ccc2c(c1)N(CC(=O)N1CCN(c3ncccn3)CC1)C(=O)CO2	1.06	1.77
Cc1ccc(NC(=O)Cn2ncc3c2-c2cc(C)ccc2OC3)c(Cl)c1	0.974	-0.693
CC(C)NC(=O)CCc1cn(Cc2ccccc2)c2ccccc12	1.04	1.14

Reformatted with bars between the fields: entries from further up
canonical_smiles | CBX7 AlphaScr | CBX7 AlphaScr z-score
CCOc1ccccc1CN1C(=O)CCC1(C)C(=O)NC1CCCCCC1 (centres undefined) | 1.23 | 1.78
O=C(COc1ccc2oc3c(c2c1)CCCC3)Nc1ccccc1 | 1.02 | 0.223
